E coli growth – inhibitors of Escherichia coli growth; AID 1053175; OD600 absorbance (no concentration beside the values); 330,000 tested, 0.21% active; OD600, 23 h; hits give low values;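 active means OD600 absorbance below the run mean of sample wells minus 3.6 SD, in any replicate, cut at about 0.56 in these data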;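 further: stock transfer was 300 nL into about 60 µL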
Vif A3G – HIV-1 Vif–A3G interaction blockers – biochemical, TR-FRET, GST-Vif 1-94, biotin-A3G peptide, dose response retest, primary screen (AID 1117319) | TR-FRET GST-Vif / biotin-A3G peptide binding; higher % means a stronger effect; test concentration not given here; strong numbers were not always called active | inhibition, %; hits with a dose series show IC50 in µM | 260,000 tested, 0.57% active;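 active means above the screen mean plus three standard deviations and confirmed in dose response; inconclusive means results disagree or hit not tested in dose response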;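 further: Vif residues 1-94 fused to GST binding biotinylated APOBEC3G peptide 110-148; 0% = full assay without inhibitor and 100% = GST in place of GST-Vif; retest series ran down from 100 µM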
ALR inh – inhibitors of human sulfhydryl oxidase ALR; P55789; inhibition, % (concentration not given with the values); 290,000 tested, 3.8% active; purified ALR, DTT oxidation, H2O2 HRP-luminol luminescence; AID 485317;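 active means mean and each replicate at 75% or more; inconclusive means only one of the two met; inactive means neither met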;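 further: stock transfer was 7.5 nL into about 7.5 µL; 0% = neutral wells and 100% = wells with inactivated enzyme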
Target sequence (P55789 whole entry, looked up): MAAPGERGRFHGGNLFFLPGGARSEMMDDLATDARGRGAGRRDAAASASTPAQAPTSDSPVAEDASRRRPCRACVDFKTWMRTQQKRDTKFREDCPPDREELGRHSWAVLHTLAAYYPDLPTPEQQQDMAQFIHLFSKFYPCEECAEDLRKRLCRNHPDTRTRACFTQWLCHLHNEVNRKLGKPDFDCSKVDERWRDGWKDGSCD
HNF4A DNA FP – change in binding of human HNF4 alpha to DNA. P41235. HNF4a-FITC DNA binding, fluorescence polarization, 1 h. activity change, % at 10 µM. 360,000 tested, 0.3% active; in the data active means activity change above about 30%, passing the limit was not always enough;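 further: controls were the assay level and a saturating level of protein; the project sought stronger binding though the title names inhibitors; some compounds called inactive have numbers as strong as hits; positive values seem to mean higher polarization but the record does not say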
FGF22 binding – binders of recombinant human FGF22 by thermal shift. calls only at 9.99 µM. Q9HCT0. SYPRO orange fluorescence; percent of sucrose octasulfate shift, DMSO zero. 340,000 tested, 1.5% active;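 active means melting point raised past a set limit in the mean and every replicate; inconclusive means no clear call; three in four hits are not shown here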
Target sequence (Q9HCT0 whole entry, looked up): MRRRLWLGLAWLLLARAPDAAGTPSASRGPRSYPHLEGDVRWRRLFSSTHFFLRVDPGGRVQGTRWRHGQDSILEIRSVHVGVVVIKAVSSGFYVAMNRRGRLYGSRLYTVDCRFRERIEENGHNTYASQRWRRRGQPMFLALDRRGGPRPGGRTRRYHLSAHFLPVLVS
Ecoli rRNA inh – selective bacterial rRNA inhibition in E. coli. E. coli WT GFP vs humanized-ribosome RFP mutants, fluorescence, 24 h; hits give low values; DMSO median 0, no signal -100. GFP signal change (wild-type ribosome), % (no concentration beside the values). AID 720706. 350,000 tested, 1.6% active;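 active means significant combined selectivity score with lowered wild-type GFP, culture density cut under 30%, mutant RFP and density less affected; inactive means any of these conditions unmet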; further: one replicate is shown; some compounds called inactive have numbers as strong as hits
AF4-AF9 inh – inhibitors of human MLL-AF4/AF9 interaction; AID 651704; 350,000 tested, 0.47% active; inhibition, % at 10 µM; AlphaScreen, biotin-AF4 peptide binding to FLAG-AF9;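 active means every replicate reaching a set inhibition limit, whatever the replicate mean, cut at about 25% in these data; inconclusive means mean inhibition reaches that limit but some replicates miss it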;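 further: 0% = plate neutral control median and 100% = total signal loss; the record names both 10 and 1 µM as test concentration; the first replicate is given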
Target sequence (P42568 whole entry, looked up): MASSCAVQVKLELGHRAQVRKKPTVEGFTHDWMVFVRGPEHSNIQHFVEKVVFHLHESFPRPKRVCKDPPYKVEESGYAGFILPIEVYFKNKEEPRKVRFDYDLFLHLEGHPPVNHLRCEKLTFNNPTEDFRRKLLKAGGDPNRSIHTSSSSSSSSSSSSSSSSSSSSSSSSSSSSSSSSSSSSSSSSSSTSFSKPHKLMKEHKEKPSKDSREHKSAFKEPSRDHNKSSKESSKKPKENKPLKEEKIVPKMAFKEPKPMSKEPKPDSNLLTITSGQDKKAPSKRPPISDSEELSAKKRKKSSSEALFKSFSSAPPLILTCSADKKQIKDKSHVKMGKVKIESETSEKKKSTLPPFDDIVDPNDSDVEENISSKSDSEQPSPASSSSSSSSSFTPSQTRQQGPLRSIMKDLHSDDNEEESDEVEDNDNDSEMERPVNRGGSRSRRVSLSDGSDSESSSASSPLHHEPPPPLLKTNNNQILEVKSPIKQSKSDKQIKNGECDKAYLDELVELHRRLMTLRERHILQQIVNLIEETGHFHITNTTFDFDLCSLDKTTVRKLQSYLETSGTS
Ecoli rRNA inh OD600 – also measured in Ecoli rRNA inh; calls as there; OD600 change, %; measured here: OD600 growth;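 optical density of the mix in the first replicate; 0 = DMSO median and -100 = no signal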
Ecoli rRNA inh RFP – further read-out of Ecoli rRNA inh, marked with its call; RFP signal change, %; measured here: RFP humanized mutant strains;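 first replicate; 0 = DMSO median and -100 = no signal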
An asterisk follows results filed as active; i = inactive; ? = inconclusive; / = no result given; & = joins results of further samples.

Ecoli rRNA inh RFP	ALR inh	Ecoli rRNA inh	HNF4A DNA FP	E coli growth	Vif A3G	AF4-AF9 inh	Ecoli rRNA inh OD600	FGF22 binding	canonical_smiles
6.5	0	10	-2.1	0.69	/	0.5	14	i	O=C(Nc1ccccn1)Nc1ccccc1Cl
-0.5	11	7	-0.6	0.63	5%	9.0	16	i	CC(OC(=O)CNC(=O)c1ccc(Cl)c([N+](=O)[O-])c1)C(=O)NCc1ccco1 (centres undefined)
/	-7	/	-1.6	0.68	29%	/	/	/	COCCNC(=O)c1cc(-c2cccc(OC)c2)on1
/	-3	/	-0.7	0.69	/	/	/	/	Cc1ccc(C(=O)N[C@H](C(=O)Nc2cc(Cl)cc(Cl)c2)C(C)C)cc1
2.3	/	-6	/	/	/	-2.8	-5	i	CCC(=O)N(C)C[C@@H]1Oc2cc(-c3cccc(OC)c3)ccc2S(=O)(=O)N([C@H](C)CO)C[C@@H]1C
59	/	11	-19	0.75	?	3.5	-2	i	CC1=C(C#N)c2nc(N)c(C#N)c(C)c2/C1=C\c1ccc(-c2ccccc2C(=O)O)o1
2.0*	-136	-16*	2.2	0.72	18%	0.4	0.8*	i	Cc1c(C(=O)NN)nn(-c2ccc(Cl)cc2)c(=O)c1C#N
-16	48	-52	-0.3	0.63	6%	-18	-58	i	CCCCCCCCn1cnc2c(N)c(C)c(C)cc21
-1.8	-10	-1	-3.6	/	15%	2.0	6	i	COc1ccc(NCC(=O)N/N=C2\CCc3ccccc32)cc1
/	79*	/	7.0	0.71	31%	/	/	/	O=C(CCCn1c(=S)[nH]c2ccccc2c1=O)NC1CCCCC1
/	-3	/	-3.2	0.79	16%	/	/	/	COCCCNC(=O)Cn1nnc(-c2ccc(NC(=O)c3ccccc3F)cc2)n1
27	/	8	0.5	/	/	2.1	-13	i	O=C(CC1c2cc(F)ccc2C=C(c2ccsc2)N1c1ccc(C#CCCO)cc1)c1ccco1 (centres undefined)
-1.5	3	14	1.1	0.69	3%	7.5	3	i	CCSc1cc(C)nc2c(-c3ccc(Cl)cc3)c(C)nn12
-3.3	-2	1	1.4	0.66	?	-1.5	-12	i	NC(=NC(=O)c1ccc(Cl)cc1)N1N=CCC1c1ccccc1 (centres undefined)
/	-3	/	3.6	0.76	2%	/	/	/	CCOC(=O)c1ccc(NC(=O)CCC(=O)OC)cc1
0.6	-16	7	3.4	0.76	/	-5.5	8	i	Cc1nn(CCCC(=O)NCc2ccccc2)c(=O)c2nccn12
2.9	/	2	/	/	/	15	-8	i	C[C@@H]1CN([C@H](C)CO)C(=O)c2cc(NC(=O)Cc3cn(C)c4ccccc34)ccc2O[C@@H]1CN(C)CC1CCCCC1
/	-10	/	-2.6	0.74	0%	/	/	/	Cc1ccccc1NC(=O)/C(=C\c1cccs1)NC(=O)c1ccco1
4.2	1	-3	1.2	0.63	-1%	1.1	-8	i	Cc1nn2c(NCCN(C)C)c3c(nc2c1-c1ccccc1)CCC3
0.7	/	2	/	/	/	0.4	-5	i	C[C@@H]1CN([C@@H](C)CO)C(=O)c2cc(NC(=O)CCC(F)(F)F)ccc2O[C@@H](C)CCCCO[C@H]1CN(C)Cc1ccc(C(F)(F)F)cc1
0.1	-12	3	-2.9	0.67	-2%	0.3	-6	i	COc1ccc(-n2c(=S)[nH]c3ccccc3c2=S)cc1
1.9&-2.4	/	1&-1	-1.9	/	0%	4.3&-0.5	0&-2	i	COc1ccc(S(=O)(=O)N(C)C[C@@H]2OCCCC[C@@H](C)Oc3ccc(NS(=O)(=O)c4cccs4)cc3C(=O)N([C@H](C)CO)C[C@@H]2C)cc1
/	5	/	1.3	0.62	14%	/	/	/	Cc1cc(NC(=O)CSc2nnnn2Cc2ccccc2)no1
0.5	-16	10	-2.0	0.71	-3%	1.3	15	i	CCn1ccnc1C(O)c1cccc(OC)c1OC (centres undefined)
7.1	/	11	1.4	/	/	-5.1	8	i	C=C(C)c1sc(-c2ccc(Cl)cc2)nc1C
/	2	/	-1.6	0.73	-3%	/	/	/	O=C(NC1CCCCCC1)c1cc(S(=O)(=O)N2CCOCC2)ccc1N1CCCCC1
/	-15	/	4.0	0.74	-2%	/	/	/	CCOC(=O)c1cc(C)n(-c2ccc(OC)c(OC)c2)c1C
-24	/	-59	/	/	/	13	-73	i	CC(=O)N[C@@H]1CC[C@@H](CCNC(=O)Nc2ccc(C(F)(F)F)cc2)O[C@H]1CO
/	24	/	1.5	0.68	-4%	/	/	/	O=C(Nc1ccccc1C(=O)O)c1cc(S(=O)(=O)N2CCCCC2)cs1
-0.9	/	-1	2.1	0.67	8%	-0.8	-9	i	Cc1ccccc1NC(=O)N1CCN(C/C=C/c2ccccc2)CC1
2.6	/	-3	2.8	/	/	7.3	-8	i	CN1CCN(c2ccc(CNC(=O)c3ccc(-c4cnn(C)c4)c4ccoc34)cc2)CC1
-6.9	18	5	-0.2	/	26%	6.1	-4	i	COCCNC(=S)N/N=C(\C)c1cccc(OC)c1
0.6	1	5	-0.3	0.67	-5%	0.8	13	i	O=C(NCc1ccc(Cl)cc1)C1CCN(c2cnccn2)CC1
-2.9	/	-13	0.8	/	/	3.5	-22	i	CN1C[C@@H]2[C@@H]3C(=O)N(Cc4ccccc4)C(=O)[C@@H]3[C@](Cc3ccccc3)(C1=O)N2C(=O)c1ccc(C(C)(C)C)cc1
17	-14	8	20	/	5%	5.3	10	i	Clc1ccc2c(N/N=C/c3cccc(Br)c3)ccnc2c1
-5.5*	98*	-35*	5.4	/	3%	7.3	-9.2*	i	O=C(O)c1ccc(N/N=C/c2cn(Cc3ccccc3F)c3ccccc23)cc1
/	-5	/	/	0.67	-4%	/	/	/	Cc1ccc(/C=C2\SC(=S)N(CC(=O)Nc3ncc(Cc4ccccc4Cl)s3)C2=O)cc1
-1.0	2	0	2.5	0.65	/	-2.6	10	i	O=C(CS(=O)(=O)Cc1ccccc1)Nc1nnc(C(F)(F)F)s1
-2.8&5.6	/	-1&15	2.4	/	/	-0.8&2.1	3&14	i	O=C(C[C@@H]1CC[C@@H]2[C@H](COC[C@H](O)CN2S(=O)(=O)c2ccccc2)O1)Nc1ccccc1
-4.2	-3	-4	-1.7	0.65	/	3.5	-3	i	CC(C)(CO)CNC(=O)c1ccc2nc(Cc3cccc(Cl)c3)oc2c1
0.3	-1	-5	7.7	0.67	-5%	-3.6	9	i	CCCN(c1ccc(C(=O)OC)cc1)S(=O)(=O)c1ccccc1
-2.9	3	3	-2.2	0.67	/	-3.0	4	i	CC1(C)Cc2c(sc(NC(=O)C(=O)NCCCN3CCOCC3)c2C(N)=O)CO1
-2.4	/	3	/	/	/	-0.7	2	i	CO[C@H]1CN(C)C(=O)c2cc(NS(=O)(=O)c3ccc(C)cc3)ccc2OC[C@@H](C)N(C)C[C@H]1C
0.4	-2	5	1.7	0.72	/	3.0	14	i	CC1(c2ccccc2)NC(=O)N(CC(=O)NCc2ccc3c(c2)OCO3)C1=O (centres undefined)
0.7	32	4	0.5	0.69	-2%	-4.1	-2	i	N#C/C(C(=S)Nc1ccccc1)=C1/NN=C(N2CCOCC2)N1c1ccccc1
16	/	-25	/	/	/	-1.5	0	i	Cc1ccc(-c2ccc([C@@H]3[C@@H](CO)N4CCCCN(C(=O)c5ccc(F)cc5)C[C@@H]34)cc2)cc1
9.2	/	1	0.1	0.71	-7%	7.2	-7	i	COc1cccc(CN2CCN(C(=O)c3cc(-c4ccccn4)nc4ccc(Cl)cc34)CC2)c1
-5.2	2	7	2.8	0.76	4%	/	8	/	O=C(Nc1ccc(Oc2ccccc2)cc1)C1CCN(c2ncccn2)CC1
/	71	/	2.6	0.76	?	/	/	/	Nc1ccccc1SCC(=O)Nc1ccc(N2CCOCC2)cc1
/	/	/	-2.8	0.43*	?	-2.7	/	i	Oc1c(I)cc(I)c2cccnc12
0.8	/	2	/	/	/	-1.6	-4	i	CO[C@H]1CN(C)C(=O)c2cc(NC(=O)C3CC3)ccc2OC[C@@H](C)NC[C@H]1C
1.6	5	2	1.2	0.65	4%	-2.7	-3	i	COc1ccc(C(=O)OCC(=O)Nc2nnc(-c3ccccc3)o2)cc1
0.5	-1	9	3.3	0.66	/	-1.6	12	i	COCCCNC(=S)N1CCN(S(=O)(=O)c2ccc(OC)cc2)CC1
-28	-14	-56	7.2	0.66	6%	9.3	-76	i	O=C(COc1cccc2ccccc12)N1CCN(c2ccccn2)CC1
/	-38	/	-0.5	0.76	73%	/	/	/	O=C(CN1CCN(S(=O)(=O)c2ccc(Cl)cc2)CC1)Nc1ccc2c(c1)OCCO2
/	-7	/	-0.6	/	2%	/	/	/	COc1ccc(CCn2nnnc2C(C(C)C)N2CCN(c3ncccn3)CC2)cc1OC (centres undefined)
-0.8	/	0	/	/	/	-1.9	-6	i	O=C(C[C@@H]1C=C[C@H](NC(=O)C2CCOCC2)[C@@H](CO)O1)NCCc1cscn1
/	1	/	-0.6	0.63	4%	/	/	/	Cc1cc(C)c2c(N)c3ccccc3nc2n1
3.6	19	2	0.6	0.71	/	-2.7	6	i	CCC1(c2ccc(OC)cc2)NC(=O)N(CC(=O)NC2CCCCC2C)C1=O (centres undefined)
-2.3	/	-2	2.4	0.72	1%	-1.0	-3	i	CCCCn1c(N)c(N(C)C(=O)C2CC(=O)N(Cc3ccco3)C2)c(=O)[nH]c1=O (centres undefined)

(continued)
Ecoli rRNA inh RFP	ALR inh	Ecoli rRNA inh	HNF4A DNA FP	E coli growth	Vif A3G	AF4-AF9 inh	Ecoli rRNA inh OD600	FGF22 binding	canonical_smiles
/	/	/	5.7	0.75	21%	/	/	/	CNc1nc(-c2c[nH]c3ccccc23)cs1
/	/	/	-1.6	0.73	3%&10%	/	/	/	CCOC(=O)N1CCC(NC(=O)C2CCCN2C(=O)OCc2ccccc2)CC1 (centres undefined)
-1.7	-1	7	-1.3	0.62	/	5.9	7	i	COc1ccc(NC(=O)c2ccco2)cc1NC(=O)c1ccccc1F
-0.4	/	-2	/	/	/	-0.5	-5	i	CCNC(=O)C[C@@H]1CC[C@H]2[C@H](COc3ccc(NC(=O)c4cc(C)on4)cc3C(=O)N2C)O1

Source: PubChem BioAssay (several laboratories)

An excerpt (hit frequency here may not be typical).
